VDR inhibitor: blocks the human vitamin D receptor. P11473. VDR-SRC2-3 peptide fluorescence polarization, 2 h. Potency, µM, inactives show max response, negative = inhibition, usual class: inhibitors. actives 0.93% (n = 400,000). AID 504847; active means well fitted inhibition curve with a large enough effect; inconclusive means small, poorly fitted or top-dose-only effect, or another doubt; inactive means no such curve, though single readings can be large or run the other way; further: series mostly up to about 120 µM
Target sequence (P11473 whole entry, looked up): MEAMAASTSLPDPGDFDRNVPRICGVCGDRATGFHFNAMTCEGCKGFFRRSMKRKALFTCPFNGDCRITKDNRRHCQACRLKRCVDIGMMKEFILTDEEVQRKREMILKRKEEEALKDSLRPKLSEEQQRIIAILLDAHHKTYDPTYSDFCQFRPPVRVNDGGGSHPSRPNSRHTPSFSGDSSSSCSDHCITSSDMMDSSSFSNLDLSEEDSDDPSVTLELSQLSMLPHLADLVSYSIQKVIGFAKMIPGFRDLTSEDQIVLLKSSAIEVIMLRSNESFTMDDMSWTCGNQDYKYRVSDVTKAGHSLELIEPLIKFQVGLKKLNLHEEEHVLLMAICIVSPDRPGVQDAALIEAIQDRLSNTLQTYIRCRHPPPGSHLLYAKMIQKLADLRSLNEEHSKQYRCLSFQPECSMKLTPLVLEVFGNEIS
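Signal is fluorescence polarization, reporting how far test compounds block the interaction of VDR with the SRC2-3 coregulator peptide after a 2 h room-temperature incubation.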
Starred values were filed as active, the others as inactive; ? = inconclusive; & = joins results of further samples; [ ] = another dose, or the depositor's remark. On the % scale 0 is the no-effect control and ±100 the full control effect; potency means the concentration at half of the fitted maximal effect.

A first look:
item | smiles | VDR inhibitor
1 | CC(C)C[C@@H]1NC(=O)[C@H](C(C)C)NC(=O)c2cc([N+](=O)[O-])cc(I)c2OCC[C@@H](C(N)=O)NC1=O | -8.9%
2 | COc1cc(/C=N/NC(=O)c2cccc(C)c2)ccc1OCC(=O)Nc1ccccc1 | 81.6%[activator]
3 | COc1cc(C2/C(=C(\O)c3ccc4c(c3)OCCO4)C(=O)C(=O)N2CCN2CCOCC2)cc(OC)c1OC (stereo not drawn) | 3.7%
4 | CC(=O)c1ccc(NC(=O)NC2CCCc3ccccc32)cc1 (stereo not drawn) | -9.8%

This part in full, from the first entry:
item | smiles | VDR inhibitor
1 | CC(C)C[C@@H]1NC(=O)[C@H](C(C)C)NC(=O)c2cc([N+](=O)[O-])cc(I)c2OCC[C@@H](C(N)=O)NC1=O | -8.9%
2 | COc1cc(/C=N/NC(=O)c2cccc(C)c2)ccc1OCC(=O)Nc1ccccc1 | 81.6%[activator]
3 | COc1cc(C2/C(=C(\O)c3ccc4c(c3)OCCO4)C(=O)C(=O)N2CCN2CCOCC2)cc(OC)c1OC (stereo not drawn) | 3.7%
4 | CC(=O)c1ccc(NC(=O)NC2CCCc3ccccc32)cc1 (stereo not drawn) | -9.8%
5 | COc1cc(NC(=O)CC(C)S(=O)(=O)c2ccc3c(c2)CCN3C(C)=O)cc(OC)c1OC (stereo not drawn) | 4.7%
6 | COc1cccc(/C=C2\SC(=O)N(CCC(=O)N3CCCCC3CCO)C2=O)c1 (stereo not drawn) | 4.2%
7 | Cc1cc2nc3c(nc2cc1C)C1(C(=O)N(C)C)CCC3(C)C1(C)C (stereo not drawn) | -25.3%
8 | O=C(COc1ccccc1Br)Nc1ccc(S(=O)(=O)N2CCCC2)cc1 | 11.2%
9 | CC1(C)CC(=O)C=C(Nc2ccc3c(c2)OCCO3)C1 | 5.4%
10 | CCCCN1CC(c2nc3ccccc3n2CCCCOc2ccccc2C)CC1=O (stereo not drawn) | 13.3%
11 | CC(NC(=O)COC(=O)CC(c1ccccc1)c1ccccc1)c1ccccc1 (stereo not drawn) | -0.5%
12 | Cc1ccc2c(-c3ccc([N+](=O)[O-])cc3)cc(=O)[nH]c2c1 | -14.7%
13 | Cc1cccc(Nc2nnc(SCC(=O)NCc3cccs3)s2)c1 | -21.3%
14 | CC(C(=O)O)c1ccc(-c2ccccc2)c(F)c1 (stereo not drawn) | -18.2%&13.6%
15 | Cc1cccc(N=C2NN=C(c3ccc4c(c3)OCCO4)CS2)c1 | 2.7%
16 | CCNc1nc(NCC)n2c(SCC(=O)N3CC4(C)CC3CC(C)(C)C4)nnc2n1 (stereo not drawn) | -4.9%
17 | CC(C)(C)c1ccc(OCCOCCn2cnc3ccccc3c2=O)cc1 | ?
18 | COc1ccc(NC(=O)/C=C\C(=O)N(c2ccc(C(C)C)cc2)C(C(=O)NCc2ccco2)c2ccc(C)cc2)cc1 (stereo not drawn) | 4.2%
19 | O=C(COc1ccc(Cl)cc1)NCCSCc1cccc(Cl)c1 | 8.8%
20 | Cc1nc(NC(=O)/C=C/c2ccccc2)sc1C(=O)Nc1cccc(Cl)c1 | -24.1%
21 | CC1=CC(C)(C)NC(=S)N1c1cccc(Cl)c1 | -17.3%
22 | CC(C)C(C)NC(=O)COc1ccc(S(=O)(=O)N2CCOCC2)cc1Cl (stereo not drawn) | 3.1%
23 | O=C(C1CC1)N1CCN(c2nc3c(Cl)cccc3s2)CC1 | 5.3%
24 | COc1ccc(CCC(=O)Nc2nc(C)c(C(=O)N(C)C)s2)cc1 | -16.5%
25 | C/C(CC(=O)Nc1ccc(N(C)C)cc1)=N\NC(=O)c1cnccn1 | -1.9%
26 | Cc1cc(NC(=O)CSc2nccn2-c2ccc([N+](=O)[O-])cc2)no1 | -10.4%
27 | COc1ccc(NCc2nnc(SCC(=O)NCc3ccco3)n2-c2ccccc2OC)cc1 | 1.0%
28 | O=C(O)c1ccccc1CSc1nnnn1-c1ccccc1 | -4.3%
29 | O=C(CN1C(=O)NC2(CCCC2)C1=O)Nc1ccc(Cl)cc1C(F)(F)F | 10.1%
30 | CCCCn1c(SCC(=O)NCc2ccco2)nc2cc(S(N)(=O)=O)ccc21 | 10.5%
31 | CCOc1ccc(C(=O)NCC(c2ccc3c(c2)OCO3)N2CCN(C)CC2)cc1 (stereo not drawn) | 12.0%
32 | O=C(Nc1ccc(N2CCCCC2)cc1)C(Cl)c1ccccc1 (stereo not drawn) | 10.5%
33 | N[C@H](C(=O)O)[C@H](OCc1ccccc1)C(=O)O | 2.6%
34 | COC(=O)c1cn(Cc2ccc(C(F)(F)F)cc2)cc(F)c1=O | 16.4%
35 | CC(=O)Nc1ccc2nsnc2c1 | 1.2%
36 | COc1ccccc1NC(=O)CSc1nc2c(oc3ccccc32)c(=O)n1-c1ccc(C)cc1 | 0.7%
37 | CC1Cc2ccccc2N1C(=O)COC(=O)CNC(=O)c1ccc(Br)o1 (stereo not drawn) | 4.1%
38 | C#CCCCCCCC#CCN(C)C | -18.2%
39 | COc1cccc(C(=O)NNC(=O)CCc2ccccc2)c1 | ?
40 | CC(C)CN(C(=O)CSc1nc(-c2ccccc2)cn1N)c1c(N)n(Cc2ccccc2)c(=O)[nH]c1=O | ?
41 | Cc1nnc(NC(=O)CSc2ncnc3scc(-c4ccccc4)c23)s1 | 3.2%
42 | O=C(NNc1cccc(Cl)n1)Nc1ccccc1F | -10.2%
43 | Cc1ccc(CNC(C)c2ccccc2)cc1 (stereo not drawn) | ?
44 | Cn1c(Cc2ccccc2)n[nH]c1=S | -11.9%
45 | C1CCN2C[C@@H]3C[C@@H](CN4CCCC[C@H]34)[C@H]2C1 | 2.4%
46 | CCOc1cc(/C=C2/NC(=S)NC2=O)ccc1OCc1ccc([N+](=O)[O-])cc1 | -3.7%
47 | COc1ccccc1N(CC(=O)N(C)Cc1ccccc1)S(=O)(=O)c1cccs1 | -23.1%
48 | O=C1CC(N2CCSCC2)C(=O)N1CCc1ccccc1 (stereo not drawn) | 4.4%
49 | Cc1nnc(NC(=O)C2COc3ccccc3O2)s1 (stereo not drawn) | -13.9%
50 | CCS(=O)(=O)N1CCCC(C(=O)NCc2ccc(C)cc2)C1 (stereo not drawn) | -0.7%
51 | COc1ccc(NC(=O)c2nc(SCc3ccccc3F)ncc2Cl)cc1 | 2.4%
52 | CN(C)C(=O)COc1ccc(C(=O)/C=C/c2cccnc2)cc1 | -15.0%
53 | CCCCC(=O)Nc1ccc(C(=O)NCCN2CCOCC2)cc1 | -13.5%
54 | CN(CC(=O)Nc1ccccc1Cl)C(=O)CSC(=S)N1CCCC1 | -12.5%
55 | O=C(CCC1COc2ccccc2O1)Nc1cccnc1 (stereo not drawn) | -8.4%
56 | Cc1cc(C(=O)NCCCN(C)C)c2ccccc2n1 | -3.2%

New compounds follow.
item | smiles | VDR inhibitor
57 | Cc1ccc(C(=O)Nc2c(C)cc(-c3ccccc3)oc2=O)cc1 | -13.3%
58 | CC(C)(C)c1ccc(C(=O)N2CCN(S(=O)(=O)c3ccc(Br)s3)CC2)cc1 | -4.5%
59 | CCCCCNC(=O)CCCCn1c(=O)[nH]c2cc(OCC)c(OCC)cc2c1=O | -18.7%
60 | COc1ccc(Cl)cc1Nc1nc(C)cc(C)c1C(N)=O | 6.4%
61 | COc1cc2[nH]c(=O)n(CCCCCC(=O)NCCc3ccccc3)c(=O)c2cc1OC | -7.9%
62 | CCCN1C(=O)c2ccccc2NC1c1ccc(OC)c(COc2cccc(OC)c2)c1 (stereo not drawn) | -11.1%
63 | C=C(C)CSc1nc(N)c2c(C)c(C)sc2n1 | 4.3%
64 | Cc1ccc(-n2ccc(=O)c(C(=O)Nc3ccc(S(=O)(=O)Nc4nccc(C)n4)cc3)n2)cc1 | -2.5%
65 | CCCN(CCC)CCCNC(=O)c1cn(CCOC)c(=O)c2c1c1ccccc1n2C | 21.4%
66 | CCc1ccc(C(=O)NNC(=O)C2CC(=O)N(c3ccc4c(c3)OCCO4)C2)cc1 (stereo not drawn) | -5.0%
67 | CC(=O)c1cc2c(cc1N/C(=N/S(=O)(=O)c1ccc(Cl)cc1)c1ccc(F)cc1)OCO2 | 11.8%
68 | Cc1csc(CNC(=O)C2CCC(=O)N(CCCc3ccccc3)C2)n1 (stereo not drawn) | -18.3%
69 | O=C(CCn1cccc1)NCc1ccccc1 | -6.8%
70 | Cc1cc(C)cc(N(CC(=O)Nc2cccc(C)n2)S(=O)(=O)c2c(C)noc2C)c1 | -8.4%
71 | CCOC(=O)c1c(CN(C)C)n(-c2ccccc2)c2cc(Br)c(OC)cc12 | -4.3%
72 | COCCN(C(C)=O)c1nnc(-c2cnccn2)s1 | 11.1%
73 | COc1ccc(C)cc1-n1nnc(-c2nc(-c3ccccc3Cl)no2)c1N | 1.2%
74 | O=C1C[C@@H](c2ccc(O)cc2)Oc2cc(O[C@@H]3O[C@H](CO)[C@@H](O)[C@H](O)[C@H]3O)cc(O)c21 | -6.0%
75 | Cc1cc(=O)oc2c(C)c(OCC(=O)N3CCC(C(=O)O)CC3)ccc12 | 0.0%
76 | CCOC(=O)C1=C(C)NC(=S)NC1c1ccc(-c2ccc(Cl)cc2)o1 (stereo not drawn) | -21.4%
77 | O=C1c2cc(S(=O)(=O)NCCCO)ccc2-c2ccc(S(=O)(=O)NCCCO)cc21 | 4.6%
78 | CCOc1ccccc1CN1CCN(Cc2cccc3nonc23)CC1CCO (stereo not drawn) | 8.6%
79 | COc1ccc(C(=O)OC2=C(C(=O)c3ccccc3)N(C)S(=O)(=O)c3ccccc32)cc1OC | -18.3%
80 | Cc1cc(C(=O)NCc2ccco2)on1 | -3.3%
81 | O=C(CCN1C(=O)c2cccc([N+](=O)[O-])c2C1=O)Nc1nccs1 | -11.7%
82 | CCOc1cc(C=O)cc(Cl)c1OCC(N)=O | -15.0%
83 | CCOc1ccc(NC(=O)Nc2ccon2)cc1 | -6.6%
84 | CCOc1ccc(S(=O)(=O)NC2=NCCCCC2)cc1 | 11.0%
85 | CN1CCN(CCCNC(=O)c2cn(C)c3ccc(S(=O)(=O)N(C)C)cc3c2=O)CC1 | -11.7%
86 | CCOC(=O)c1cc(C#N)c(Oc2cccc(C(F)(F)F)c2)nc1-c1ccccc1 | -5.9%
87 | Cc1ccc(C)c(C(=O)CSc2nnc(C)s2)c1 | -1.6%
88 | CCOc1ccccc1CNCCN1CCOCC1 | -2.7%
89 | COc1ccc(NC2(c3ccc(Cl)cc3)C(=O)c3ccccc3C2=O)cc1 | -9.7%
90 | Cc1ccc(SCC(=O)OCC(=O)N(C)CC(=O)Nc2ccccc2Cl)cc1 | -20.9%
91 | Cc1ccccc1-c1nccc(Nc2ccc(F)cc2)n1 | -12.1%
92 | O=C(NC1CCCC1)c1cc(-c2ccc(Cl)cc2Cl)on1 | 1.8%
93 | CCN(C1CCS(=O)(=O)C1)S(=O)(=O)c1ccc(OC)c(OC)c1 (stereo not drawn) | 4.9%
94 | CCN(CC(=O)NCc1ccco1)S(=O)(=O)c1ccc(OC)cc1 | -3.4%
95 | O=C(c1ccc(F)cc1)n1cc(C(=S)N2CCOCC2)c2ccccc21 | -7.3%
96 | COc1ccc(C=C2C(=O)OC(C)(C)OC2=O)cc1OC | -3.2%

An excerpt from above in order of count of non-hydrogen atoms, falling:
item | smiles | VDR inhibitor
95 | O=C(c1ccc(F)cc1)n1cc(C(=S)N2CCOCC2)c2ccccc21 | -7.3%
93 | CCN(C1CCS(=O)(=O)C1)S(=O)(=O)c1ccc(OC)c(OC)c1 (stereo not drawn) | 4.9%
91 | Cc1ccccc1-c1nccc(Nc2ccc(F)cc2)n1 | -12.1%

Continued.
item | smiles | VDR inhibitor
97 | Cc1ccc(CNC(=O)CN2C(=O)COc3ccc(S(=O)(=O)N4CCCCC4)cc32)o1 | -3.1%
98 | CCOC(=O)N1CCN(CCC(=O)Nc2ccc(Br)c(C)c2)CC1 | -4.5%
99 | O=C(OCC(=O)N1CCCC1=O)c1ccc(F)c(S(=O)(=O)N2CCOCC2)c1 | -16.3%
100 | O=C(O)c1cccc(N/N=C/C2=C(Cl)c3cc(Cl)ccc3SC2)c1 | -11.8%
101 | Cc1nnc(N2C(=O)c3cccc4c([N+](=O)[O-])ccc(c34)C2=O)s1 | -18.4%
102 | COc1ccc(OCC(=O)NCCC2=CCCCC2)c([N+](=O)[O-])c1 | -7.7%
103 | COc1ccc(C(=O)N/N=C/c2c(C)[nH]c(=O)[nH]c2=O)cc1 | -2.0%
104 | CC(C)CC(=O)Nc1nnc(S(=O)(=O)N2c3ccccc3CC2C)s1 (stereo not drawn) | -17.0%&5.1%
105 | CCCc1ccc(C(=O)[C@@H]2[C@@H](C(C)=O)N3c4ccc(F)cc4C=C[C@@H]3[C@@]23C(=O)Nc2ccccc23)cc1 | -4.5%
106 | COc1ccc(NC(=O)CSc2nc(=O)n(CCN3CCOCC3)c3c2CCCC3)c(OC)c1 | -10.9%
107 | CC(=O)Nc1ccc(S(=O)(=O)NC2=NCN(CCO)CN2)cc1 | -4.9%
108 | COc1cc2[nH]c(=O)n(Cc3ccc(C(=O)N4CCC(N5CCCCC5)CC4)cc3)c(=O)c2cc1OC | -23.6%
109 | Cc1ccccc1NS(=O)(=O)c1ccc(NC(=O)c2ccco2)cc1 | -0.1%
110 | CCCCOc1ccc(C(=O)NCC2(c3ccccc3)CCOCC2)cc1 | -11.1%
111 | COc1ccccc1N1CCN(C(=O)c2cc(=O)c3cc(C)ccc3o2)CC1 | -7.4%
112 | CCCN(CCC)C(=O)CSc1nc2ccsc2c(=O)n1NC(=O)c1ccccc1 | 15.9%
113 | COC(=O)C(CCSC)NC(=O)Cn1ncc2c(=O)oc3ccc(C)cc3c21 (stereo not drawn) | 1.5%
114 | COc1cc(/C=C(/C#N)C(=O)Nc2ccc(Cl)cc2)ccc1Oc1nc(Cl)ncc1F | -0.2%
115 | CC(C)(C)Cc1nc(-c2ccc(Cl)cc2)no1 | -2.5%
116 | Cc1ccc(CN2CC(C(=O)Nc3cc(C)ccn3)CC2=O)cc1 (stereo not drawn) | -1.2%
117 | COc1ccc2c(CC(=O)NNC(=O)c3ccccc3F)coc2c1 | 23.0%
118 | COc1ccc(OC)c(Nc2ccc(C(=O)O)cc2[N+](=O)[O-])c1 | -18.7%

This is a subset; the hit share may differ from the screen's.
